LANA-H2B inh: blockers of LANA interaction with H2A/H2B – biochemical, FP readout, HTS, primary screen; Protein LANA1 (Human herpesvirus 8 type P (isolate GK18)), Q9QR71; 320,000 tested, 0.6% active; AID 2629, 2010; inhibition, % (no concentration beside the values); cell-free LANA-H2A/H2B peptide, fluorescence polarization; in the data active means inhibition mostly above about 10%, no sharp cut-off; inactive means mostly below about 6.7%;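 further: stock transfer was 7.5 nL into about 10 µL; 0% = median of vehicle wells and 100% = median of positive control wells; one replicate is shown; the record names a cut of 25% in any replicate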
Target sequence (Q9QR71 whole entry, looked up): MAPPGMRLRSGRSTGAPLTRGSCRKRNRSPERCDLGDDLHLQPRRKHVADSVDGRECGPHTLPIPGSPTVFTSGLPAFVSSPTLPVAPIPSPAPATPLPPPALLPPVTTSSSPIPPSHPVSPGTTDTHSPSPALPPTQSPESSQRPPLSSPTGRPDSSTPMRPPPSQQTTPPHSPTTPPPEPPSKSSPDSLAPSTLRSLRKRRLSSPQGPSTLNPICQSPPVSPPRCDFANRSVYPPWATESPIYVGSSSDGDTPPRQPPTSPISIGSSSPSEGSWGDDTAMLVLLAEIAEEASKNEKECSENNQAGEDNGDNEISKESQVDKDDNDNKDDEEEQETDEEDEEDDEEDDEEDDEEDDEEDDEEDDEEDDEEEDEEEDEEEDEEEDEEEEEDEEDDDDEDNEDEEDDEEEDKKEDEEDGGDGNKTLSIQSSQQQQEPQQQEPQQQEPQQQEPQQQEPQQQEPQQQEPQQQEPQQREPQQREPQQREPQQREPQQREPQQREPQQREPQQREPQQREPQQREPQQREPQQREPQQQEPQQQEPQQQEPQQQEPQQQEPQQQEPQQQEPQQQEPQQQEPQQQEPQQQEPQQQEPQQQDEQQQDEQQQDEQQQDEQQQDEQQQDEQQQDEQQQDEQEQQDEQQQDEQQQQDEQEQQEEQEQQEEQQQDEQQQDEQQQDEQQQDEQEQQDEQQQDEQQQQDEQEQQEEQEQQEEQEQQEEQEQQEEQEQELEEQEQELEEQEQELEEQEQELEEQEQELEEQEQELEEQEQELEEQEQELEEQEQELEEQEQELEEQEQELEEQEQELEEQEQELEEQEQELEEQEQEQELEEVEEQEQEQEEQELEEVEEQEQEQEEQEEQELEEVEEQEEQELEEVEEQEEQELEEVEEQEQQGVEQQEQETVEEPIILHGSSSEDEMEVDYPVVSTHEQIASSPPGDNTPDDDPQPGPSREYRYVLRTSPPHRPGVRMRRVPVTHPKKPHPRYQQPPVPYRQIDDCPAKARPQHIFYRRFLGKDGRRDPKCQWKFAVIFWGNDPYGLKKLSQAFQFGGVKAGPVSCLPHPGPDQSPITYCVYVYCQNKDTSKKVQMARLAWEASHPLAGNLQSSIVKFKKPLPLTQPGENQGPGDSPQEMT
T cruzi repl: inhibitors of intracellular T. cruzi growth, primary screen, luminescence, NIH3T3 host cells; inhibition, % (test concentration not listed); T. cruzi beta-gal in NIH3T3, 90 h; AID 1885, 2009; 300,000 tested, 1.4% active;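 active means mean inhibition across valid replicates above about 55%, limit read from the data; inconclusive means mean below that limit but half or more replicates reach it; inactive means mean below it, under half of replicates reach it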;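 further: signal also drops with host cell toxicity which is not excluded here; 0% = plate median of DMSO wells and 100% = zero luminescence signal; higher percent means less beta-gal luminescence so fewer parasites; stock transfer was 50 nL into about 50 µL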
Calb FLC: C. albicans growth inhibition with fluconazole, primary screen, CaCi-2 strain, Alamar Blue fluorescence. C. albicans CaCi-2 (fluconazole-resistant clinical isolate) + fluconazole, 48 h. growth inhibition, % (no concentration beside the values). 300,000 tested, 0.57% active;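 active means most replicates above 75%; inconclusive means exactly half above 75%; inactive means most below 75%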;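 further: all wells also contain fluconazole at 8 µg/ml as a sub-toxic cotreatment; 0% = median of DMSO wells and 100% = median of geldanamycin control wells; wells of about 8 µL received 7.5 nL stock; the first replicate is given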
Beta apoptosis: inhibitors of cytokine-induced beta cell apoptosis, primary screen, luminescence. protection from apoptosis, % (test concentration not listed). 300,000 tested, 0.8% active. INS-1E cytokine-induced death, ATP luminescence, 48 h; percent of positive-control rescue, neutral wells zero;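 active means all replicates at 75% or more, or half of them and the mean; inconclusive means half reach 75% but not the mean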;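 further: 0% = cytokine-treated negative control wells and 100% = positive control rescue; higher means more ATP so stronger rescue from cytokine killing; wells of about 40 µL received 100 nL stock; the first replicate is given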
ALR inh: inhibitors of human ALR sulfhydryl oxidase, primary screen, biochemical, H2O2 detection, HRP-luminol luminescence, single point; FAD-linked sulfhydryl oxidase ALR (Homo sapiens), P55789; purified ALR, DTT oxidation; inhibition, % (concentration not given with the values); 290,000 tested, 3.8% active;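 active means mean and each replicate at 75% or more; inconclusive means only one of the two met; inactive means neither met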;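 further: stock transfer was 7.5 nL into about 7.5 µL; 0% = neutral wells and 100% = wells with inactivated enzyme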
rRNA inh HTS: reduced GFP signal of wild-type E. coli, primary screen, bacterial rRNA inhibitor project, GFP/RFP fluorescence, OD600, single point | E. coli WT GFP vs humanized-ribosome RFP mutants, 24 h; active compounds read low; DMSO median 0, no signal -100 | GFP signal change (wild-type ribosome), % (test concentration not listed) | 350,000 tested, 1.6% active;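 active means significant combined selectivity score with lowered wild-type GFP, culture density cut under 30%, mutant RFP and density less affected; inactive means any of these conditions unmet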; further: one replicate is shown; some compounds called inactive have numbers as strong as hits
A1 inh: caspase 3/7 activation in MEF A1-2A-BIM cells, primary screen, A1 inhibitor project, cell-based, luminescence, HTS. caspase activation, % (concentration not given with the values). 330,000 tested, 0.066% active. Caspase-Glo 3/7 luminescence, 3 h; percent of clofoctol response, vehicle zero;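 active means over half of replicate activation scores above 10%, or exactly half above 10 with the replicate mean above 10; inconclusive means replicate mean below 10 yet half the replicates above 10; inactive means over half of replicates below 10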;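 further: wells of about 30 µL received 50 nL stock; many hits fall short of the cut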
Beta2AR agonist: beta2AR agonists driving receptor internalization, primary screen, cell-based, FAP fluorogen, flow cytometry; 340,000 tested, 0.43% active; response, % (no concentration beside the values); Beta-2 adrenergic receptor (Homo sapiens), P07550; Am2.2-beta2AR cells; reference of the scale not given here; AID 504454, 2011;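 active means response above a set limit, near 3 SD of response in nonfluorescent compounds, cut at about 42% in these data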;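 further: stock transfer was 100 nL into about 11 µL; a reference agonist was the positive control; negative values mostly stem from fluorescent compounds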
rRNA inh HTS OD600: recorded beside rRNA inh HTS, whose call it bears; OD600 change, %; measured here: OD600 growth;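 optical density of the mix in the first replicate; 0 = DMSO median and -100 = no signal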
rRNA inh HTS RFP: further read-out of rRNA inh HTS, marked with its call; RFP signal change, %; measured here: RFP humanized mutant strains;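 first replicate; 0 = DMSO median and -100 = no signal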
The depositor's hits bear a star; ? = inconclusive; nt = not tested or not shown.

Sample of the layout:
cpd	canonical_smiles	LANA-H2B inh	T cruzi repl	Calb FLC	Beta apoptosis	ALR inh	rRNA inh HTS	rRNA inh HTS OD600	rRNA inh HTS RFP	A1 inh	Beta2AR agonist
1	O=C(O)CCC(=O)N(Cc1ccco1)c1nc(-c2ccccc2)cs1	-3.3	-14	26	-5	-9	nt	nt	nt	1.2	3
2	O=C(NCC1CCCO1)c1ccc2c(c1)N(Cc1ccc(F)cc1Cl)C(=O)CS2 (configuration not stated)	4.1	5	19	0	nt	-1	-2	1.6	0.0	-11
3	Cc1ccnc(NC(=O)C2CCN(S(=O)(=O)c3cccc4nsnc34)CC2)c1	1.9	-7	2	-11	-2	nt	nt	nt	-0.4	4
4	CC(C)(C)NC(=O)CCCCCCCC(=O)NC(C)(C)C	6.7	7	-1	-3	2	1	2	-0.7	1.2	-9
5	CC(C)(C)C(=O)Nc1ccc(C(=O)N/N=C/c2ccccc2OC(=O)c2ccccc2)cc1	-4.8	-2	-16	87*	-1	nt	nt	nt	-0.2	0
6	CC(=O)CSc1nnc(-c2ccncc2)n1C	-1.8	-9	0	-8	27	nt	nt	nt	0.2	1

This part in full, repeating the preview:
cpd	canonical_smiles	LANA-H2B inh	T cruzi repl	Calb FLC	Beta apoptosis	ALR inh	rRNA inh HTS	rRNA inh HTS OD600	rRNA inh HTS RFP	A1 inh	Beta2AR agonist
1	O=C(O)CCC(=O)N(Cc1ccco1)c1nc(-c2ccccc2)cs1	-3.3	-14	26	-5	-9	nt	nt	nt	1.2	3
2	O=C(NCC1CCCO1)c1ccc2c(c1)N(Cc1ccc(F)cc1Cl)C(=O)CS2 (configuration not stated)	4.1	5	19	0	nt	-1	-2	1.6	0.0	-11
3	Cc1ccnc(NC(=O)C2CCN(S(=O)(=O)c3cccc4nsnc34)CC2)c1	1.9	-7	2	-11	-2	nt	nt	nt	-0.4	4
4	CC(C)(C)NC(=O)CCCCCCCC(=O)NC(C)(C)C	6.7	7	-1	-3	2	1	2	-0.7	1.2	-9
5	CC(C)(C)C(=O)Nc1ccc(C(=O)N/N=C/c2ccccc2OC(=O)c2ccccc2)cc1	-4.8	-2	-16	87*	-1	nt	nt	nt	-0.2	0
6	CC(=O)CSc1nnc(-c2ccncc2)n1C	-1.8	-9	0	-8	27	nt	nt	nt	0.2	1
7	CCN(c1ccccc1)S(=O)(=O)c1cc(C(=O)Oc2ccc3c(C)cc(=O)oc3c2)ccc1C	0.1	-4	-8	1	-4	nt	nt	nt	-1.4	7
8	Cc1ccc(S(=O)(=O)Nc2cccc(/C=C/C(=O)O)c2)cc1	0.8	-6	-3	-1	27	nt	nt	nt	1.1	5
9	CS(=O)(=O)Oc1ccc2c(c1)O/C(=C\c1cccnc1)C2=O	1.9	-8	-7	-9	-3	-4	-11	-0.8	0.7	-17
10	COc1cccc(/C=N/NC(N)=S)c1OS(=O)(=O)c1ccccc1	9.6	-8	1	-10	nt	nt	nt	nt	0.0	-7
11	C/C(CC(C)C)=N\Nc1ccc(S(N)(=O)=O)cc1[N+](=O)[O-]	7.8	6	-19	-1	-15	-1	8	7.2	-0.4	-5
12	COc1ccccc1OCCCCCCN1CCOCC1	-0.2	2	-22	-3	12	5	3	-6.2	0.6	1
13	CC(C)N(C(=O)Cn1cc(SCC(=O)NCC2CCCO2)c2ccccc21)C(C)C (configuration not stated)	-0.7	12	-30	-5	0	7	11	0.0	0.6	-3
14	Cc1ccc(NC(=O)[C@H](Cc2ccccc2)NC(=O)C2CCNCC2)cc1	-1.1	5	-1	-7	-2	3	9	-3.6	-0.2	-1
15	Cc1cccc(NC(=S)NC(=O)C(c2ccccc2)c2ccccc2)n1	5.9	-7	-10	-2	-6	nt	nt	nt	-0.6	-10
16	Brc1ccc(-c2csc(N/N=C/c3ccc4c(c3)OCO4)n2)cc1	-0.3	31	?	nt	-4	nt	nt	nt	0.9	5
17	O=C(O)C1CCCCC1C(=O)Nc1ccccc1F (configuration not stated)	-1.3	-31	-2	-7	-8	nt	nt	nt	0.7	13
18	O=C(NCc1ccccc1)C1=C[C@H](c2ccccc2)C[C@H](OCc2ccc(CO)cc2)O1	0.4	2	-3	8	-36	nt	nt	nt	0.6	-13
19	O=C(COC(=O)c1ccccc1O)Nc1ccc(N2CCOCC2)cc1	1.3	nt	nt	16	-3	1	10	-0.4	-1.2	1
20	O=S(=O)(c1ccc(F)c(Cl)c1)N1CCCC1	4.0	-4	-6	-2	-78	13	12	2.6	1.3	1
21	COc1ccc2nc3oc(C(=O)N4CCCCC4)cc3cc2c1	-1.9	4	-7	9	-27	nt	nt	nt	-3.5	-15
22	Cc1ncoc1C(=O)Nc1ccc(Oc2ccccc2)cc1	-1.0	-17	-1	-2	-8	nt	nt	nt	-3.4	-6
23	CCC1(c2ccc(F)cc2)NC(=O)N(CC(=O)N2c3ccccc3NC(=O)CC2C)C1=O (configuration not stated)	1.1	nt	nt	1	nt	nt	nt	nt	-0.5	3
24	CCCC1CC(C(=O)Nc2ccccc2)C(=O)O1 (configuration not stated)	-3.3	3	0	-3	-4	7	7	0.3	0.0	-2
25	CS(=O)(=O)N1CCN(C(=O)CCc2ccccc2)CC1	1.8	-3	3	nt	-6	3	-2	-5.3	2.0	-4
26	CC(=O)Nc1ccc(NC(=O)c2cc(-c3ccc(C)c(C)c3O)n[nH]2)cc1	-3.7	-8	16	0	42	-6	5	4.4	0.2	11
27	Cc1cc(C)nc(Nc2nc3ccccc3o2)n1	-2.8	-23	-1	0	13	3	-1	-3.0	-0.8	3
28	C(=N\N1CCN(c2ccccn2)CC1)/c1cccc2ccccc12	2.1	5	19	8	3	-21*	-8.2*	0.2*	0.0	-4
29	O=C(O)C1CC=CCC1C(=O)Nc1cccc([N+](=O)[O-])c1 (configuration not stated)	0.2	-6	-11	0	-4	0	-3	-14	1.0	1
30	Cc1cc(C)c(NC(=O)CSc2nnc(CNC(=O)c3ccccc3F)o2)c(C)c1	-3.7	-4	-4	-4	-2	4	4	2.8	0.7	3
31	Cn1nnnc1SCC(=O)Nc1ccccn1	4.7	-7	-11	-24	-4	nt	nt	nt	0.0	-3
32	Cc1ccc2nsnc2c1NC(=O)c1ccc2c(c1)OCCO2	1.4	-16	1	-5	nt	7	6	0.0	-0.7	1
33	C/C(=C\CCC1(C)C2CC3C(C2)C31C)C(=O)O (configuration not stated)	4.1	3	3	nt	-43	6	1	-0.2	0.4	4
34	CCOC(=O)c1cc2c(nc1NC(=S)NCc1ccccc1)CCCC2	-1.9	10	-8	6	-2	7	0	0.8	-1.4	-17
35	CCC(CC)C(=O)Nc1nnc(SCC(=O)NC2CC2)s1	-3.2	13	1	nt	-7	4	6	-0.9	-0.7	-3
36	O=C(NCc1ccco1)C1CC(=O)N(c2ccc(F)cc2)C1 (configuration not stated)	-0.1	-6	-5	-11	3	nt	nt	nt	-1.0	0
37	Cc1ccc(CC(CC(=O)O)C(=O)NC2CCCCC2)cc1 (configuration not stated)	-0.9	1	?	-2	19	nt	nt	nt	0.9	10
38	CCn1c(SCC(=O)NC2CCCC2)nnc1-c1ccncc1	-2.4	-11	-4	-6	-14	10	14	2.5	1.3	2
39	CSc1nc(N)nc2c1ncn2CC(=O)NCCCN1CCCC1=O	-1.9	nt	nt	-11	nt	14	16	0.6	0.9	-1
40	CCC(C)c1ccc(NC(=S)NCc2cccs2)cc1 (configuration not stated)	5.2	33	-37	8	-3	nt	nt	nt	0.3	6
41	COc1ccc(OC)c(CN2CCC(C(=O)N3CCOCC3)CC2)c1	0.3	-13	1	-9	-2	nt	nt	nt	1.3	10
42	COc1cccc(/C=C2\SC(=S)N(N3CCOCC3)C2=O)c1OC	1.0	-20	11	nt	-2	nt	nt	nt	0.3	1
43	Cc1ccc(C(=O)NC(=S)NNC(=O)CC#N)cc1	-2.7	9	109*	4	99*	nt	nt	nt	-1.6	-1
44	CCCn1cnc2c(oc3ccccc32)c1=O	3.1	-5	-4	-8	-4	-14	-1	-3.2	1.4	-8
45	N=c1c(C(=O)NCc2ccc3c(c2)OCO3)cc2c(=O)n3ccccc3nc2n1Cc1cccnc1	0.0	47	-31	5	-3	nt	nt	nt	0.1	5
46	CC1=CC=CC2=NC(=O)CC(C)(C(=O)O)N12 (configuration not stated)	-1.2	-18	-7	-12	-3	22	4	1.0	-1.0	3
47	O=C(OCC(=O)N1CCN(C(=O)c2ccco2)CC1)c1cn(-c2ccccc2)nc1-c1ccccc1	-3.9	14	?	3	1	nt	nt	nt	0.2	-10
48	CN(C)C(CNc1ccc([N+](=O)[O-])cc1C#N)c1ccccc1 (configuration not stated)	-2.0	3	0	-4	-38	15	5	0.2	-0.5	-2
49	COc1ccc(C2=NS(=O)(=O)N(C)C(C(=O)Nc3ccc(OC)c(OC)c3)=C2)cc1	-0.6	-6	10	1	-10	-1	1	4.0	1.1	-4
50	CCc1cccc(CC)c1NC(=S)NCc1ccc2[nH]c(C)cc2c1	-1.2	35	-21	12	-16	0	8	4.6	0.0	-3

Further entries follow:
cpd	canonical_smiles	LANA-H2B inh	T cruzi repl	Calb FLC	Beta apoptosis	ALR inh	rRNA inh HTS	rRNA inh HTS OD600	rRNA inh HTS RFP	A1 inh	Beta2AR agonist
51	O=C(/C=C/c1ccccc1Cl)c1ccc[nH]1	-2.0	1	-2	-2	5	nt	nt	nt	-3.8	0
52	CC(C)(C)c1ccc(S(=O)(=O)/N=C2\C=C(NS(=O)(=O)c3ccccc3)C(=O)c3ccccc32)cc1	-10	-6	-3	-2	31	-35	-63	-3.8	-1.3	2
53	O=C(C(=O)N1CCN(c2ccc(F)cc2)CC1)c1cn(CC(=O)N2CCOCC2)c2ccccc12	0.4	-3	4	-3	6	6	0	-3.0	0.1	6
54	N#CCSc1nc2[nH]ncc2c(=O)n1-c1ccccc1Br	-1.5	nt	?	4	-1	nt	nt	nt	0.5	12
55	CCOC(=O)C1CCN(S(=O)(=O)c2ccc(OC)c(OC)c2)CC1	-2.5	-17	-1	-9	3	9	9	-9.5	-0.3	14
56	O=C(Nc1ncn[nH]1)c1ccc(Cl)cc1Cl	-0.6	-4	5	-4	-9	9	-11	1.4	0.7	1
57	O=C(CSCc1nc2ccccc2[nH]1)Nc1ccc2ccccc2c1	-2.0	6	-1	-4	99*	nt	nt	nt	-1.3	-9
58	CCOc1ccc2nc(NC(=O)c3ccoc3C)sc2c1	-5.3	23	-19	53	-12	nt	nt	nt	-0.4	11

A portion of the library, so the mix of outcomes need not match the whole.
